TRPC4 potent = TRPC4 (mouse) allosteric potentiation | 310,000 tested, 0.42% active | Q9QUQ5 | B-score at 10 µM | HEK293 TRPC4beta/mu-opioid, DAMGO EC20, Fluo-4 Ca2+ flux; active compounds read high;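 active means B-score of calcium response area above 5 SD of library B-scores, with initial fluorescence ratio within 5 SD of library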;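 further: B-score of integrated fluorescence ratio over time as area under calcium response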
TRPC6 inh = inhibitors of mouse TRPC6 channel; Q61143; HEK293-TRPC6, membrane potential dye, ACh-evoked depolarization; active compounds read low; B-score at 10 µM; 310,000 tested, 1.1% active; AID 2553;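 active means B-score under library mean minus 3 SD, initial fluorescence not abnormally high, positive integrated signal ratio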;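 further: B-score derived from integrated fluorescence ratio over the kinetic read; more negative B-score means stronger inhibition of depolarization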
MrgX1 antagonist = human MrgX1 receptor antagonism, primary screen. Q96LB2. MRGX1-HEK293 calcium flux, Fluo-4, BAM8-22 antagonism; active compounds read low. B-score at 10 µM. 310,000 tested, 1.3% active. AID 588676;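 active means calcium-response B-score plate-corrected more than 3 library SD below zero, starting fluorescence within 5 deviations, no agonist response on first addition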;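 further: peak minus trough fluorescence over baseline after final BAM8-22 challenge near maximal dose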
Target sequence (Q96LB2 whole entry, looked up): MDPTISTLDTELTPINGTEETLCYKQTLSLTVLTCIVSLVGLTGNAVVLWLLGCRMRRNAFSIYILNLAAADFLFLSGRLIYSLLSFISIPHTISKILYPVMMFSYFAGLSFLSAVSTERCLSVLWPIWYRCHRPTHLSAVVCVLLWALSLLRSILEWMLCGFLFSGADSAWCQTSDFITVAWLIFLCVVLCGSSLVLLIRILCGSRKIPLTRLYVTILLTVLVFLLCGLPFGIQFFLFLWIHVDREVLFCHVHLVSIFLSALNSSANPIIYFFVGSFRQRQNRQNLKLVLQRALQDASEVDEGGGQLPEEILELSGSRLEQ
TRPC4 act = TRPC4 (mouse) channel activation; Q9QUQ5; HEK293 TRPC4beta/mu-opioid, Fluo4 calcium fluorescence; active compounds read high; B-score at 10 µM; 310,000 tested, 0.49% active; AID 2237;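 active means B-score above 5 SD of library B-scores, and initial fluorescence ratio not above library mean plus 5 SD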;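 further: positive B-score marks a calcium rise read as TRPC4 activation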
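Material: TRPC4beta and mu-opioid receptor HEK293 stable cells | Incubation: 45 min room-temperature Fluo4 loading, 110 s read | Detection: Kinetic Fluo4 calcium fluorescence | Measure: Integrated baseline-normalised fluorescence ratio, converted to per-well B score | Benchmarks: Low control buffer alone, high control maximal DAMGO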
SKKanGAS inh = inhibitors of SKKanGAS S. pyogenes growth in kanamycin (SK-promoter or general growth effect); AID 1662; BacTiter-Glo, 6 h; inhibition, % at 7.5 µM; 300,000 tested, 1.3% active;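 active means mean replicate score, as percent of positive control median, at least 50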;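 further: strain carries kanamycin resistance gene driven by streptokinase promoter and grows in 40 µg/ml kanamycin; loss of luminescence reflects streptokinase promoter inhibition or plain growth inhibition; 0% = median of DMSO wells and 100% = positive control at its reference dose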
aSyn UTR inh = MLPCN primary screen, SNCA 5' untranslated region; alpha-synuclein 5'UTR reporter, inhibitor activity; 300,000 tested, 0.82% active; inhibition, % (tested at 7.5 µM); in the data active means inhibition above about 60%;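 further: H4 neuroglioblastoma cells stably carrying SNCA 5'UTR luciferase fusion; 0% = DMSO wells and 100% = positive control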
IEC-6 tox = counter-screen for KLF5 inhibitors: cytotoxicity in IEC-6 cells. IEC-6 cytotoxicity, luminescence viability. 290,000 tested, 0.78% active. inhibition, % at 5 µM; in the data active means inhibition above about 22%;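 further: 0% = plate median of test compound wells and 100% = cytotoxic reference compound wells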
TRPC6 act = activators of mouse TRPC6 channel; Q61143; HEK293-TRPC6 membrane potential dye fluorescence; active compounds read high; 310,000 tested, 0.13% active; AID 2550; B-score at 10 µM;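 active means B-score of the integrated fluorescence ratio above library mean plus 3 SD, and starting fluorescence ratio within library mean plus 5 SD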;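 further: higher score means more depolarization so channel activation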
TRPC4 block = blocks the mouse TRPC4 cation channel. HEK293 TRPC4beta/mu-opioid, DAMGO-evoked Fluo4 calcium flux; active compounds read low. Q9QUQ5. AID 2247. 300,000 tested, 0.39% active. B-score at 10 µM;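 active means B-score over 3 SD under the library average, no early fluorescence shift, positive overall ratio signal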
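Material: HEK293 cells with stable TRPC4beta plus mu-opioid receptor expression / Probe or stimulus: DAMGO in two steps, submaximal then maximal / Compound: single concentration per test compound / Technique: kinetic Fluo4 fluorescence imaging of calcium influx / Read-out: per-well B score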
KLF5 inh = kruppel-like factor 5 inhibition; DLD-1 KLF5 promoter-luciferase reporter, luminescence; inhibition, % at 5 µM; 290,000 tested, 0.23% active; AID 1700;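 active means inhibition above a per-plate limit of that plate's mean compound inhibition plus 3 SD, cut at about 60% in these data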;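 further: 0% = DMSO wells and 100% = LY294002 at 200 µM; higher means less KLF5 promoter-driven luciferase light; inactives centre near -14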
* hit, by the source's call; i = inactive; . = no result given. These rows are one share of the data (hit frequency here may not be typical).

no. | SMILES | TRPC4 potent | TRPC6 inh | MrgX1 antagonist | TRPC4 act | SKKanGAS inh | aSyn UTR inh | IEC-6 tox | TRPC6 act | TRPC4 block | KLF5 inh
1 | Clc1ccc(-n2ncc3c(NCc4cccs4)ncnc32)cc1 | i | i | i | i | 27.3 | -249.5 | 0.8 | i | i | -36.2
2 | CC(=O)[C@H]1[C@H](C#N)C[C@H]2[C@@H]3CC=C4C[C@@H](O)CC[C@]4(C)[C@H]3CC[C@@]21C | i | i | i | i | 4.1 | -26.0 | 4.6 | i | i | -12.1
3 | CCN1CCc2c(C#N)c(N3CCOCC3)nc(NCc3ccccc3)c2C1 | i | i | . | i | 1.9 | 6.8 | 0.2 | i | i | 6.8
4 | Cc1ccc(NC(=O)CSC2=C(C#N)C(c3ccco3)C3=C(CCCC3=O)N2)cc1 (centres undefined) | i | i | i | i | 0.6 | -17.8 | -2.3 | i | i | -3.8
5 | CCC(C)Nc1nc(OC)nc(N(C)C#N)n1 (centres undefined) | i | i | i | i | -11.4 | -5.2 | -0.8 | i | i | 6.7
6 | CCCOc1ccc(N2C(=O)CC(N(CCC)C(=O)CCC(=O)O)C2=O)cc1 (centres undefined) | i | i | i | i | -0.5 | -10.6 | -3.8 | i | i | 16.8
7 | O=C1C=C(O)CC(c2ccc(Cl)c(Cl)c2)C1 (centres undefined) | 11* | i | i | i | 8.3 | -4.1 | -0.9 | i | i | -38.6
8 | C=CCN=C(C)C1=C(O)CCC1=O | i | i | i | i | -2.7 | 7.2 | -10.0 | i | i | -8.8
9 | CCN(CC)CCOC(=O)C(Cc1cccc2ccccc12)CC1CCCO1 (centres undefined) | i | i | i | i | 5.4 | -7.4 | 10.3 | i | i | -11.6
10 | CC(C)COc1nc2ccccc2nc1C(C#N)C(=O)NC1CCCCC1 (centres undefined) | i | i | i | i | 17.8 | -12.4 | -1.7 | i | i | -2.2
11 | COc1ccc(Nc2nc(Nc3ccc(OC)cc3)nc(-n3[nH]c(=O)c(C)c3C)n2)cc1 | i | i | i | i | 87.1* | -34.4 | -5.7 | i | i | -7.3
12 | O=C(NO)c1ccccc1O | i | i | i | i | 7.5 | -2.2 | -2.5 | i | i | -8.2
13 | COc1cc(NS(=O)(=O)c2ccc(N)cc2)ncn1 | i | i | i | i | -4.0 | -10.2 | 7.4 | i | i | -21.8
14 | CC[C@]1(O)CC2CN(CCc3c([nH]c4ccccc34)[C@@](C(=O)OC)(c3cc4c(cc3OC)N(C=O)[C@H]3[C@@](O)(C(=O)OC)[C@H](OC(C)=O)[C@]5(CC)C=CCN6CC[C@]43[C@@H]65)C2)C1 (some centres undefined) | i | i | i | i | -5.5 | 102.1* | . | i | i | .
15 | CC1=C(CC(=O)O)c2cc(F)ccc2/C1=C/c1ccc(S(C)=O)cc1 (centres undefined) | i | i | i | i | 4.6 | -0.8 | -6.8 | i | i | -22.3
16 | CCOC(=O)CNC(=O)CNC(=O)c1ccc(OCC(C)C)cc1 | i | i | i | i | -12.2 | -9.4 | -0.4 | i | i | -26.4

aSyn UTR inh: what is marked active above
No. | Compound | TRPC4 potent | MrgX1 antagonist | aSyn UTR inh | TRPC6 act | TRPC4 block | KLF5 inh
14 | CC[C@]1(O)CC2CN(CCc3c([nH]c4ccccc34)[C@@](C(=O)OC)(c3cc4c(cc3OC)N(C=O)[C@H]3[C@@](O)(C(=O)OC)[C@H](OC(C)=O)[C@]5(CC)C=CCN6CC[C@]43[C@@H]65)C2)C1 (some centres undefined) | i | i | 102.1* | i | i | .

Among those listed so far, these contain an aryl methoxy group.
no. | SMILES | TRPC4 potent | TRPC6 inh | MrgX1 antagonist | TRPC4 act | SKKanGAS inh | aSyn UTR inh | IEC-6 tox | TRPC6 act | TRPC4 block | KLF5 inh
5 | CCC(C)Nc1nc(OC)nc(N(C)C#N)n1 (centres undefined) | i | i | i | i | -11.4 | -5.2 | -0.8 | i | i | 6.7
11 | COc1ccc(Nc2nc(Nc3ccc(OC)cc3)nc(-n3[nH]c(=O)c(C)c3C)n2)cc1 | i | i | i | i | 87.1* | -34.4 | -5.7 | i | i | -7.3
13 | COc1cc(NS(=O)(=O)c2ccc(N)cc2)ncn1 | i | i | i | i | -4.0 | -10.2 | 7.4 | i | i | -21.8
14 | CC[C@]1(O)CC2CN(CCc3c([nH]c4ccccc34)[C@@](C(=O)OC)(c3cc4c(cc3OC)N(C=O)[C@H]3[C@@](O)(C(=O)OC)[C@H](OC(C)=O)[C@]5(CC)C=CCN6CC[C@]43[C@@H]65)C2)C1 (some centres undefined) | i | i | i | i | -5.5 | 102.1* | . | i | i | .

High-throughput results from PubChem BioAssay.
